High-throughput results (PubChem BioAssay)
CDC25B-CDK2 inh: human CDC25B-CDK2/CyclinA binding inhibition; P30305+P24941; HTRF CDC25B-CDK2/CyclinA binding, anti-His/anti-Flag; active compounds read high; z-score (concentration not given with the values); hit rate 0.72% among 94,000;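 note: score is relative to mean and SD of negative controls; strong numbers were not always called active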
HIV TAR-Tat: HIV-1 TAR-Tat binding disruption | HIV-1 TAR RNA, Tat peptide displacement FRET; active compounds read high | z-score (concentration not given with the values) | hit rate 0.6% among 100,000 | AID 1259389;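 note: score is relative to mean and SD of negative controls; some compounds called inactive have numbers as strong as hits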
Starred values were filed as active, the others as inactive; · = no result given.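 Rule for the calls: active = z-score from 3 up in half or more of its runs; inactive = the rest.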

Results follow in this order: CDC25B-CDK2 inh	HIV TAR-Tat
Cc1nc2c3cccnc3nn2c(C)c1CCC(=O)NCCc1cccs1
→ -1.7	1.9
O=C(O)c1cccc2c1NC(c1ccccc1C(F)(F)F)C1C3CCC(C3)C21 (centres undefined)
→ 0.53	·
CCSCCOC(=O)c1[nH]c2c(c1C)C(=O)CC(c1ccc(F)cc1)C2 (centres undefined)
→ -0.53	0.91
O=C(CN1C(=O)c2ccccc2S1(=O)=O)NC1CCCC1
→ 1.5	·
Cc1cc(-c2ccccc2)nc2c1/C(=N\O)CC(C)(C)C2
→ -0.4	·
CC(CS(=O)(=O)c1ccc2c(c1)NC(=O)C(C)S2)C(=O)N1CCN(c2ccccc2)CC1 (centres undefined)
→ ·	0.16
COc1ccc(-n2c(N)cc(=O)[nH]c2=O)cc1
→ -2.4	·
O=S1(=O)C[C@H](N2CCN(c3ncccn3)CC2)[C@@H](S(=O)(=O)c2ccccc2)C1
→ -1.9	0.14
CC(C)C1N=C2c3ccccc3N=C(SCC(=O)N3CCN(c4ccc(F)cc4)CC3)N2C1=O (centres undefined)
→ ·	0.39
CCCN(CCC)C(=O)Cn1ncc2c1-c1cc(C)ccc1OC2
→ -0.56	0.08
COc1cc(C)c2c(=O)c3c(O)cc(O)cc3oc2c1
→ ·	-0.14
O=C(NC(=S)NCc1ccco1)c1csc([N+](=O)[O-])c1
→ -0.93	·
CCOC(=O)c1oc2ccc(S(=O)(=O)Nc3cc4c(cc3C)n(C)c(=O)n4C)cc2c1C
→ ·	0.79
O=C(CCN1C(=O)c2ccccc2C1=O)Oc1ccc2c(c1)oc(=O)c1ccccc12
→ -2.8	·
CC1=C(c2ccccc2)S(=O)(=O)N=C1N1CCN(Cc2ccc3c(c2)OCO3)CC1
→ -2.3	-0.64
O=C(c1ccco1)c1cn(CC(=O)N2CCCCC2)c2ccccc12
→ -0.46	-0.33
Nc1ccc(C(=O)CC2(O)C(=O)N(CCc3ccccc3)c3ccccc32)cc1 (centres undefined)
→ -0.38	·
Cc1ccc(-c2noc(-c3cc(C4CC4)[nH]n3)n2)cc1
→ ·	-0.9
Cc1ccc2c(=O)cc(C(=O)Nc3c(C)n(C)n(-c4ccccc4)c3=O)oc2c1C
→ -1.1	1.1
COc1ccc(COC(=O)C2=C(C)Nc3nnnn3C2c2ccc(OC)cc2OC)cc1 (centres undefined)
→ -0.9	·
Cc1ccc(-c2csc(-c3nnn(-c4cccc(Cl)c4)c3N)n2)cc1
→ -3.3	-1.1
Cn1nc(C(=O)N2CCN(c3ncccn3)CC2)c2c1-c1ccccc1OC2
→ -0.41	1.8
CCC1(C)Cc2[nH]c(=O)c(C(=O)O)cc2CO1 (centres undefined)
→ 1.2	0.67
CCN1CCN(C(=O)NC2COc3ccc(OC)cc3C2)CC1 (centres undefined)
→ ·	0.28
O=C(Nc1ccc(OCc2cc(=O)n3[nH]cnc3n2)cc1)c1ccco1
→ ·	1.6
CC(C)(C)NS(=O)(=O)c1cc2c(cc1Cl)NC(=O)CO2
→ ·	-1.4
Cc1nnc(SCCn2c(N3CCCC3)nc3c2c(=O)[nH]c(=O)n3C)s1
→ 1.1	·
N#Cc1nc(/C=C/c2cccs2)oc1N1CCN(C(=O)c2ccccc2)CC1
→ 0.33	0.89
Cc1cccc(C)c1NS(=O)(=O)c1ccc(NC(=O)c2ccc(Cl)cc2)cc1
→ -1.5	·
CS(=O)(=O)/C(C#N)=C/c1ccccc1OCc1c(Cl)cccc1Cl
→ -0.69	·
Cc1cc(C)c(-c2c(N3CCN(C4CCCCC4)CC3)c(=O)c2=O)cc1C
→ ·	-0.91
O=C(O)c1cnn2c3c(cnc12)CCCCCC3
→ 0.66	-2.5
O=C(O)[C@H]1CCCC[C@H]1C(=O)NCCC1=CCCCC1
→ -0.94	-1.1
COc1cc(C2c3c(oc4ccccc4c3=O)C(=O)N2c2ccc(C)cn2)ccc1O (centres undefined)
→ -1	0.82
CN(C)c1ccc(CNC(=O)c2cnc3sc4c(n3c2=O)CCCC4)cc1
→ ·	1.5
CCc1ccc(NS(=O)(=O)c2ccc(-c3cc(C)no3)cc2)cc1
→ ·	-0.68
C=CCc1ccc(OC(C)C(=O)Nc2sc3c(c2C(N)=O)CCC3)c(OC)c1 (centres undefined)
→ -1.4	0
Cc1c(Cc2ccccc2Cl)c(NCCCn2ccnc2)n2c(nc3ccccc32)c1C#N
→ 1.1	-0.08
Cc1ccc(-c2nonc2NC(=O)C2COc3ccccc3O2)cc1C (centres undefined)
→ 1.1	1.8
O=C(Cn1cc(SCc2c(F)cccc2Cl)c2ccccc21)N1CCCC1
→ ·	-1.1
CC1CCc2c(sc3nc(CCC(=O)N4CCCCC4)[nH]c(=O)c23)C1 (centres undefined)
→ ·	-0.36
O=C(COC(=O)c1ccccc1Nc1ccccc1F)c1ccccc1
→ -1	·
CCCCN1C(C(=O)c2ccccc2)=C(OC(C)=O)c2ccccc2S1(=O)=O
→ -0.02	-0.76
Cc1noc(C)c1C(=O)Nc1nc2ccc(Cl)cc2s1
→ -3.1	·
Cc1ccc(S(=O)(=O)NC2=NCN(Cc3cccnc3)CN2)cc1
→ -0.89	0.45
COc1ccc(NS(=O)(=O)c2ccc3[nH]c4c(c3c2)CCCC4)c(OC)c1
→ ·	-0.69
CCCC(C)NC(=O)Cn1cnc2c1c(=O)n(C)c(=O)n2C (centres undefined)
→ -0.73	-0.13
Clc1ccccc1CSC1=NCCCN1
→ 1.1	·
CN(C)CCC(=O)c1ccc2c(c1)OCCO2
→ 0	·
CCOC(=O)c1c(C)nc2ccc(OC(F)(F)F)cc2c1-c1ccccc1
→ -1.7	·

Arranged by SMILES length (smallest number first): some entries from above.
Results follow in this order: CDC25B-CDK2 inh	HIV TAR-Tat
Clc1ccccc1CSC1=NCCCN1
→ 1.1	·
Cc1noc(C)c1C(=O)Nc1nc2ccc(Cl)cc2s1
→ -3.1	·
O=C(COC(=O)c1ccccc1Nc1ccccc1F)c1ccccc1
→ -1	·
CCCC(C)NC(=O)Cn1cnc2c1c(=O)n(C)c(=O)n2C (centres undefined)
→ -0.73	-0.13
CC1CCc2c(sc3nc(CCC(=O)N4CCCCC4)[nH]c(=O)c23)C1 (centres undefined)
→ ·	-0.36
CCCCN1C(C(=O)c2ccccc2)=C(OC(C)=O)c2ccccc2S1(=O)=O
→ -0.02	-0.76
COc1ccc(NS(=O)(=O)c2ccc3[nH]c4c(c3c2)CCCC4)c(OC)c1
→ ·	-0.69

(more compounds)
Results follow in this order: CDC25B-CDK2 inh	HIV TAR-Tat
Cc1c(N=Cc2ccc(-c3cccc([N+](=O)[O-])c3)o2)c(=O)n(-c2ccccc2)n1C
→ -1.8	·
COCCNC(=O)CCCCn1c(=S)[nH]c2c([nH]c3ccc(OC)cc32)c1=O
→ -1.4	·
Clc1ccc2c(c1)NC(c1ccc(N3CCOCC3)cc1)=NC(c1cccs1)=N2
→ -1.2	-3.6
Cc1ccc(C2Nn3c(C)nnc3SC2C(=O)Nc2cc(C)cc(C)c2)cc1 (centres undefined)
→ -1	-0.99
O=C(Nc1ccccc1Br)N1CCCC1c1cccs1 (centres undefined)
→ -2.3	0.83
Cc1ccccc1CN(C)CCc1ccccn1
→ -0.75	0.92
OCCNCCNc1ncnc2c1cnn2-c1cccc(Cl)c1
→ ·	1
O=C(Cc1ccc2ccccc2c1)N/N=C/c1ccccc1[N+](=O)[O-]
→ -1.3	·
CCN(CC)S(=O)(=O)c1ccc2c(c1)CC(C(=O)N1CCC(C(N)=O)CC1)N2C(C)=O (centres undefined)
→ ·	1
Cc1nc(-n2cccc2)sc1C(=O)NCCN1CCCCC1
→ ·	-0.54
CCCN(CCC)c1nc(Cl)nc(NCCN2CCOCC2)n1
→ -1.1	-1.8
Cc1ccc(Nc2nc(N3CCN(C)CC3)nc3c2cnn3C)cc1
→ ·	-0.91
Cc1cc(Nc2cc(F)ccc2C)nc(-n2nc(C)cc2C)n1
→ ·	0.24
CCOc1ccc(CNS(=O)(=O)c2cc(-c3noc(C)n3)cs2)cc1
→ ·	0.47
O=S(=O)(NCC1CC1)c1ccc(F)cc1F
→ -1.1	·
O=C(Cn1c(=O)c(CNc2ccccc2)cc2cc3c(cc21)OCCO3)Nc1cccc(F)c1
→ ·	-7.4
NC1=NC(=O)C2(COC(c3ccncc3)OC2)S1 (centres undefined)
→ 0.14	·
COC(=O)c1c(C)c2c(c(C)c1OC)OC(=O)c1c(C)c(Cl)c(OC)c(Cl)c1O2
→ ·	1.9
Cc1ccccc1-n1nc(C(=O)O)c(C)c(C#N)c1=O
→ -0.38	0.95
C=CCN(c1ccccc1)S(=O)(=O)c1cc(C(=O)OCC)n[nH]1
→ ·	1.6

More results
smiles | CDC25B-CDK2 inh | HIV TAR-Tat
CC(=O)N1c2ccc(S(=O)(=O)N(C)CC(=O)N3CCN(C4CCCCC4)CC3)cc2CC1C (centres undefined) | · | -0.22
CCNc1nc(NCCCO)nc2c1cnn2C | · | 1.3
CCc1ccc(C2CC(=O)NC(SCC(=O)OCc3ccccc3)=C2C#N)cc1 (centres undefined) | -1.7 | 1.2
CC1CCCC(C)N1C(=O)CSc1nc(-c2ccco2)cc(C(F)(F)F)n1 (centres undefined) | -0.01 | 0.93
Cc1c(C(=O)N2CCCC(C)C2)sc2ncn(CC(=O)N3CC(C)CC(C)C3)c(=O)c12 (centres undefined) | -3.1 | ·
COc1ccc(N2CCCS2(=O)=O)cc1NS(=O)(=O)c1cc(C)c(C)cc1C | · | -0.03
Cc1cc2c3c([nH]c2cc1S(=O)(=O)NCc1cccnc1)CCCC3=O | · | 0.21
O=C1SC(Nc2cccc(Cl)c2)C(=O)N1c1ccccc1 (centres undefined) | -0.36 | 0.56
CCOc1ccc(Nc2ncccc2N)cc1 | · | -7.4
Cc1nnc(SCC(=O)Nc2nccs2)s1 | 0.09 | -1.4
COC(=O)CSc1nnnn1-c1ccc(C(=O)OC)cc1 | 1.2 | 0.22
O=C(Nc1c(C(=O)N2CCN(c3ccccc3)CC2)oc2ccccc12)C1CCCCC1 | · | -0.11
CC(C)CCn1c(CCCC(=O)N2CCOCC2)nc2cccnc21 | · | -5.5
O=C(CSc1nnc(C2CCNCC2)o1)c1ccc(Cl)cc1 | -1.8 | 0.49
COc1ccc(CCNc2ncnc3sc4c(c23)CCCC4)cc1 | -1.5 | ·
CSc1cccc(OC(F)(F)F)c1NC(=O)C(C)(C)C | -1.5 | ·
CCCN1C(=O)C2(/C(=C(/O)c3ccc(C)cc3)C(=O)C(=O)N2CCCOC)c2ccccc21 (centres undefined) | -0.14 | 0.09
COC(=O)C(C)Sc1nnc(CSc2nc(C)cc(C)n2)n1-c1ccc(F)cc1 (centres undefined) | -2 | -1
Cc1ccc(-c2c(C(F)(F)F)nn3c(C)cc(C)nc23)cc1 | -1.4 | -0.99
CN(C)S(=O)(=O)N1CCC(Oc2ccc(-n3cnnn3)cc2)CC1 | -0.46 | 0.86

An excerpt of these results, as labelled records:
molecule: COc1ccc(CCNc2ncnc3sc4c(c23)CCCC4)cc1
  CDC25B-CDK2 inh: -1.5 | HIV TAR-Tat: ·

molecule: Cc1ccc(-c2c(C(F)(F)F)nn3c(C)cc(C)nc23)cc1
  CDC25B-CDK2 inh: -1.4 | HIV TAR-Tat: -0.99

Further structures.
smiles | CDC25B-CDK2 inh | HIV TAR-Tat
CC1(C)Cc2c(c(N3CCOCC3)nc3sc4c(N5CCOCC5)ncnc4c23)CS1 | -2.7 | 0.97
COC(=O)CSc1nc(N2CCCCC2)c2c(c1C#N)CCCC2 | -1.3 | 1.9
Cc1ncc(-c2ccc(S(=O)(=O)Nc3ccc(F)c(F)c3)cc2)o1 | · | 1.5
CN1C(C(=O)N2CCC(C(N)=O)CC2)=CC(c2ccc3c(c2)OCO3)=NS1(=O)=O | 0.13 | 3
O=C(Cn1c(=O)c2cccn2c2cccnc21)NCc1cccnc1 | · | 1.2
Cn1c2c(c(=O)[nH]c1=O)C(c1ccc(Cl)cc1)C1=C(N2)c2ccccc2C1=O (centres undefined) | -5.2 | -18
O=C(CSc1nc2ccccc2nc1N1CCOCC1)NCC1CCCO1 (centres undefined) | 0.81 | 0.51
CCCn1c(CN2CC(C)CC(C)C2)nc2c1c(=O)n(C)c(=O)n2C (centres undefined) | -0.68 | ·
O=C(O)C1(c2ccc3c(c2)OCCO3)CCCC1 | 0.8 | -0.24
O=C(NCC1CCN(C2CCCC2)C1)C1CCC(Cn2c(=O)[nH]c3ccsc3c2=O)CC1 (centres undefined) | · | -1.4
Cc1nn(-c2ccccc2Cl)c2[nH]c(=O)cc(C(F)(F)F)c12 | · | 1.3
Cc1onc(-c2ccccc2)c1NC(=O)Nc1ccc(C2=NC(C)(C)CO2)cc1 | 5.6* | ·
COc1ccc(OC)c(C2=NOC(C(=O)NC(C)(C)C)C2)c1 (centres undefined) | 2.1 | 0.87
CN1C(C(=O)c2ccccc2)=C(OC(=O)c2ccc(Br)cc2)c2ccccc2S1(=O)=O | -0.2 | 0.63
O=C(CN1C(=O)c2cccnc2Oc2ccccc21)NCCCN1CCOCC1 | · | 1.1
CN(C)CCCN(C(=O)CCOc1ccccc1)c1nc2c(F)cccc2s1 | · | 2
O=C(O)c1cccc2cccc(S(=O)c3ccccc3CO)c12 (centres undefined) | -1.2 | ·
O=C(NCCCN1CCCC1=O)c1ccc2c(c1)NC(=O)C(N1CCOCC1)S2 (centres undefined) | -0.9 | ·
COc1ccc(OC)c(S(=O)(=O)N2CCN(c3ccc(Cl)cc3)CC2)c1 | -0.72 | ·
CCOC(=O)C1CCN(S(=O)(=O)c2ccc3c(c2)OCCO3)CC1 | -1.1 | ·
O=C(OCCN=C1NS(=O)(=O)c2ccccc21)c1ccc(F)cc1 | 0.32 | 3.9
CCOC(=O)c1cc(-c2ccccc2)sc1NC(=O)CSc1nnc(-c2ccco2)o1 | -0.68 | ·
C=CCN1C(=O)/C(=C\c2cccc(/C=C3/SC(=S)N(CC=C)C3=O)c2)SC1=S | 2.8 | ·
c1ccc(CN2CN=C(Nc3nc4ccccc4o3)NC2)cc1 | 0.51 | -0.37
COC(=O)c1ccc(Nc2c(-c3ccc(Cl)cc3)c(=O)c2=O)cc1 | · | -0.28
COc1ccc2c(c1)CC(C(=O)N1CCC(N3CCCCC3)CC1)CO2 (centres undefined) | · | 0.26
